# Polio RdRp inh = poliovirus RdRp elongation inhibitors, primary screen, biochemical, fluorescence polarization, total intensity; poliovirus polymerase elongation; active compounds read low; % elongation, % (compound at 16.7 µg/mL); hit rate 0.66% among 150,000; in the data active means % elongation below about 90%; further: some results filed as inactive read as strong as hits
# Target sequence (P03300 1749-2209 limits assumed): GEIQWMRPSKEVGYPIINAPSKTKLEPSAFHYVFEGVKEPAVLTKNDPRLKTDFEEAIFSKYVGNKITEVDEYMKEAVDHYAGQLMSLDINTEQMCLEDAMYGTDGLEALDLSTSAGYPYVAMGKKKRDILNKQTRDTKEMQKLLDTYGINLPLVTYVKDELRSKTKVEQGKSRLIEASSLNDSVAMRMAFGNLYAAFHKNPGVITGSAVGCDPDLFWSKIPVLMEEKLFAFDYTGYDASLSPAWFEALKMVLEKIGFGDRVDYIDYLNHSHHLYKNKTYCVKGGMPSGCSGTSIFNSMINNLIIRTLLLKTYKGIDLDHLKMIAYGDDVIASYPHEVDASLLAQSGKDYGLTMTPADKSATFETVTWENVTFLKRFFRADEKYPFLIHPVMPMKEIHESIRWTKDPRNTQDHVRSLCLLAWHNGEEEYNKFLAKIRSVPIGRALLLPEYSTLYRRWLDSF
# Polio RdRp inh intensity = recorded beside Polio RdRp inh, whose call it bears; % elongation; measured here: total intensity read-out; formula for this scale not given here;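 total fluorescence in place of polarization; lower means less elongation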
# * hit, by the source's call.
(1) CCN(C(=O)CCS(=O)(=O)c1cc2c(cc1C)NC(=O)CO2)c1cccc(C)c1
(2) CCCCOC(=O)c1c(C)oc2c1cc(NS(=O)(=O)c1cc(OC)ccc1OC)c1ccccc12
(3) CCC(C(=O)NCc1ccc2c(c1)CCN2C(=O)c1ccc(F)cc1)c1ccccc1 (stereo not given)
(4) Cc1ccc(NC(=O)c2cnc(SCC(=O)N3CCCc4ccccc43)n(C)c2=O)cc1C
(5) COc1cccc2sc(NC(=O)c3ccc(S(=O)(=O)N4CCC(C)CC4)cc3)nc12
(6) CCC(C)Cn1c(COc2ccc(OC)cc2)nc2ccccc21 (stereo not given)
(7) COc1cc(OC)c(NC(=O)c2noc3c2CSc2ccccc2-3)cc1Cl
(8) Cc1ccc(C)c(CN2C(=O)c3ccccc3S(=O)(=O)c3ccc(C(=O)N4CCN(Cc5ccccc5)CC4)cc32)c1

compound no.	1	2	3	4	5	6	7	8
Polio RdRp inh	103	104	105	112	107	105	112	102
Polio RdRp inh intensity	108	108	101	114	113	109	112	104

(9) Cc1ccc(S(=O)(=O)CCC(=O)Nc2ccc(Br)cc2C)cc1
(10) CCOc1ccc(-n2c(SCc3ccccc3)nc3c([nH]c4ccccc43)c2=O)cc1
(11) Cc1ccc2nc(-c3ccncc3)c(Nc3ccccc3C)n2c1
(12) Cc1nn(C)c2c1c(C(F)(F)F)cc(=O)n2C(C)C(=O)NCc1ccccc1 (stereo not given)
(13) O=C(CN1C(=O)CCc2cc(S(=O)(=O)N3CCOCC3)ccc21)NCc1ccc(Cl)cc1
(14) COc1ccc(CCNC(=O)CCc2c(C)nc3cc(-c4cccc(F)c4)nn3c2C)cc1OC
(15) Cc1ccc(CN2CCCn3nc(C(=O)NCCN(C)C)cc3C2=O)cc1
(16) O=S(=O)(c1ccccc1)n1nc(-c2ccccc2)nc1NCc1ccc(Cl)cc1

compound no.	9	10	11	12	13	14	15	16
Polio RdRp inh	104	107	110	113	108	106	106	106
Polio RdRp inh intensity	107	114	113	112	111	105	107	106

# Random excerpt: three compounds from above, in no set order.
(15) Cc1ccc(CN2CCCn3nc(C(=O)NCCN(C)C)cc3C2=O)cc1
(14) COc1ccc(CCNC(=O)CCc2c(C)nc3cc(-c4cccc(F)c4)nn3c2C)cc1OC
(12) Cc1nn(C)c2c1c(C(F)(F)F)cc(=O)n2C(C)C(=O)NCc1ccccc1 (stereo not given)

compound no.	15	14	12
Polio RdRp inh	106	106	113
Polio RdRp inh intensity	107	105	112

# Following part
(17) CCC(C)NC(=O)Cn1cnc2sc(C)c(S(=O)(=O)N3CCN(c4ccccc4OC)CC3)c2c1=O (stereo not given)
(18) CCOC(=O)c1ccc(NC(=O)Cn2cc(C(=O)c3ccc(CC)cc3)c(=O)c3ccc(C)nc32)cc1
(19) COc1ccc(NC(=O)Cn2c(=O)n(CCC(=O)NCc3ccccc3OC)c(=O)c3ccccc32)cc1Cl
(20) Cc1cccc(N2CCN(C(=O)C3CCN(S(=O)(=O)c4ccc5c(c4)oc(=O)n5C)CC3)CC2)c1C
(21) CCc1ccc(-c2[nH]c3c(c2-c2sc(C)c(C(=O)OC)c2O)c(=O)[nH]c(=O)n3C)cc1
(22) CCOC(=O)CCn1c(=O)c2cccn2c2cccnc21
(23) COc1ccccc1CNC(=O)CCc1c(C)nn(-c2ccc(N3CCCC3)nn2)c1C
(24) CCOC(=O)C1CCN(C(=O)CN2c3ccc(C(C)C)cc3-c3ccccc3S2(=O)=O)CC1

compound no.	17	18	19	20	21	22	23	24
Polio RdRp inh	106	111	104	107	113	108	110	100
Polio RdRp inh intensity	109	109	105	107	115	108	112	99

(25) CC(C)Oc1cccc(NC(=O)C2CCN(S(=O)(=O)Cc3ccccc3)CC2)c1
(26) Cc1ccc(Cn2c(CO)cnc2SCC(=O)Nc2cccc(F)c2)cc1
(27) O=C(CSc1nc2ccsc2c(=O)n1-c1ccc(Br)cc1)NCc1ccccc1
(28) CCCCCn1c(=N)c(S(=O)(=O)c2ccc(C)cc2)cc2c(=O)n3cc(C)ccc3nc21
(29) CC(=O)Nc1ccc(S(=O)(=O)N2CCC(c3nnnn3-c3ccccc3)CC2)cc1
(30) Cc1cccc(Cc2c(C)nc3nc(SCc4ccccc4C)nn3c2C)c1
(31) Cc1ccc(-c2c(C)n3c4c(=O)n(C)c(=O)n(C)c4nc3n2CCCO)cc1
(32) CCN(CC)CCCNC(=O)c1nn(-c2ccc(OC)cc2)c(=O)c2c1c1ccccc1n2C

compound no.	25	26	27	28	29	30	31	32
Polio RdRp inh	100	103	109	107	109	108	105	110
Polio RdRp inh intensity	104	110	108	111	109	110	109	108

(33) CC1=C(C(=O)OCc2ccc(C)cc2)C(c2ccccc2C(F)(F)F)CC(=O)N1 (stereo not given)
(34) Cc1cc(C)cc(OC(=O)c2cc(-c3ccc4c(c3)OCCO4)on2)c1
(35) O=C(CCS(=O)(=O)c1ccccc1)N(Cc1cccnc1)c1nc2ccc(Cl)cc2s1
(36) Cc1ccc(CNC(=O)COCc2cc(-c3ccc4c(c3)OCO4)on2)cc1
(37) CCC(=O)N1c2ccccc2CC1C(=O)NCCCN1CCN(c2cccc(Cl)c2)CC1 (stereo not given)
(38) Clc1cccc(C2=NC(c3cccs3)=Nc3ccc(Br)cc3N2)c1
(39) O=C(CCn1cnc2onc(-c3ccc(F)cc3)c2c1=O)N1CCN(c2ccc(F)cc2)CC1
(40) CC(C)(C)OC(=O)N1CCC(c2c(C(=O)NC3CCN(Cc4ccccc4)CC3)cnn2-c2cccc(F)c2)CC1

compound no.	33	34	35	36	37	38	39	40
Polio RdRp inh	106	102	109	110	107	110	113	106
Polio RdRp inh intensity	108	101	107	112	110	100	111	110

(41) O=C(CC1N=C2c3ccccc3N=C(SCc3ccc(Cl)cc3)N2C1=O)NCCc1ccccc1 (stereo not given)
(42) COc1cc(OC)cc(-c2nc(-c3ccc4c(c3)[nH]c(=O)n4C)no2)c1
(43) COc1cc(SC)ccc1C(=O)N1CCn2c3c(c4cc(C)ccc42)CCCC31 (stereo not given)
(44) CC(=O)c1cccc(Nc2nc(-c3cccc(C)c3)nc3ccccc23)c1
(45) CCOc1ccc(C(=O)c2cn(Cc3ccc(OC)cc3)c3cc(OC)c(OC)cc3c2=O)cc1
(46) Cc1cccc(NC(=O)CSc2nc3ccc(NC(=O)c4cccs4)cc3s2)c1
(47) Cc1cccc(-c2cc(-c3ccccc3)nc(SCC(=O)Nc3ccccc3)c2C#N)c1
(48) COc1ccc(S(=O)(=O)NCc2nc3nc(C)cc(C)n3n2)cc1

compound no.	41	42	43	44	45	46	47	48
Polio RdRp inh	113	109	104	107	114	107	107	106
Polio RdRp inh intensity	112	111	107	106	109	116	111	106

# An excerpt from above in order of number of heavy atoms, lowest first.
(28) CCCCCn1c(=N)c(S(=O)(=O)c2ccc(C)cc2)cc2c(=O)n3cc(C)ccc3nc21
(19) COc1ccc(NC(=O)Cn2c(=O)n(CCC(=O)NCc3ccccc3OC)c(=O)c3ccccc32)cc1Cl
(40) CC(C)(C)OC(=O)N1CCC(c2c(C(=O)NC3CCN(Cc4ccccc4)CC3)cnn2-c2cccc(F)c2)CC1

compound no.	28	19	40
Polio RdRp inh	107	104	106
Polio RdRp inh intensity	111	105	110

# Remaining list, next part
(49) CCCOc1ccc(OC(=O)c2cn(-c3ccc(OC)cc3)c(=O)c3ccccc23)cc1
(50) CCN(CC)S(=O)(=O)c1ccc2c(c1)N(CC(=O)NCCCN1CCN(c3ccccc3F)CC1)C(=O)CO2
(51) COc1ccc(-c2cc(C(F)(F)F)n3nc(-c4ccccc4)cc3n2)cc1OC
(52) COC(=O)c1ccc(NC(=O)CSc2n[nH]c(CC(C)C)n2)cc1
(53) COc1ccc(Cl)cc1NC(=O)C(=O)NCc1ccc(Cl)cc1
(54) CCCNC(=O)c1c2c(nc3ccccc13)C(=O)N(C1CCCCC1)C2
(55) CCCN1CCN(CCNC(=O)Nc2cc(C)ccc2OC)CC1
(56) CCCCOC(=O)c1ccc(NC(=O)c2ccc3c(c2)CCCN3S(C)(=O)=O)cc1

compound no.	49	50	51	52	53	54	55	56
Polio RdRp inh	103	101	105	103	104	107	110	96
Polio RdRp inh intensity	107	108	109	107	99	112	113	94

(57) O=C(COc1ccc([N+](=O)[O-])cc1)N1CCC(c2nc3ccccc3s2)CC1
(58) CCc1ccc(OCC(=O)N(Cc2ccc(OC)cc2)C2CCS(=O)(=O)C2)cc1 (stereo not given)
(59) CCc1c(C)c(C#N)c2nc3ccccc3n2c1Nc1cccc(C(F)(F)F)c1
(60) Cc1ccc(CN2c3ccccc3-c3nc(SCC(=O)Nc4c(C)cc(C)cc4C)ncc3S2(=O)=O)cc1
(61) COc1ccc(C2=C(C)C(=NCCCN3CCN(c4cc(C)ccc4C)CC3)NS2(=O)=O)cc1
(62) CC1=C(C(=O)N2CCN(c3cccc(Cl)c3)CC2)C2(CCCCC2)OC1=O
(63) Cc1cccc(NC(=O)CSc2nnc(NC(=O)Nc3ccccc3)s2)c1C
(64) COc1ccc(CCNC(=O)Cc2c(C)c3ccc(O)c(C)c3oc2=O)cc1OC

compound no.	57	58	59	60	61	62	63	64
Polio RdRp inh	111	103	103	116	107	103	103	101
Polio RdRp inh intensity	105	103	107	105	113	111	101	106

(65) COc1ccc(OCCSc2nc(C)c(Cc3ccccc3)c(=O)[nH]2)cc1
(66) CCc1ccc(OCC(=O)Nc2cc3oc4ccccc4c3cc2OC)cc1
(67) COc1ccc(N(CC(=O)NCc2ccc(C)cc2)S(=O)(=O)c2c(C)[nH]c(=O)[nH]c2=O)cc1
(68) Cc1cc(C)c2oc(C(=O)N(Cc3ccc(F)cc3)C3CCS(=O)(=O)C3)cc(=O)c2c1 (stereo not given)
(69) CCC(=O)N1c2ccc(S(=O)(=O)NCc3cccc(OC)c3)cc2CC1C (stereo not given)
(70) COc1ccc(-c2nc3ccc(Cl)cn3c2Nc2ccc(C)cc2)cc1
(71) CCC(Cn1nnc2ccccc2c1=O)NC(=O)Nc1ccc(C)cc1C (stereo not given)
(72) CCN(CC)C(=O)CSc1cn(CC(=O)N2CCCCCC2)c2ccccc12

compound no.	65	66	67	68	69	70	71	72
Polio RdRp inh	107	98	101	108	112	104	106	116
Polio RdRp inh intensity	108	100	94	98	112	104	108	116

# Entries listed so far with a furan ring, fused or not:
(2) CCCCOC(=O)c1c(C)oc2c1cc(NS(=O)(=O)c1cc(OC)ccc1OC)c1ccccc12
(66) CCc1ccc(OCC(=O)Nc2cc3oc4ccccc4c3cc2OC)cc1

compound no.	2	66
Polio RdRp inh	104	98
Polio RdRp inh intensity	108	100

# Next section
(73) Cc1ccc(C)c(N2CCN(C(=O)c3c4c(nc5ccccc35)C(=O)N(C3CCCCC3)C4)CC2)c1
(74) CCOCCCNC(=O)C1CCC(CNS(=O)(=O)c2ccc(NC(C)=O)cc2)CC1 (stereo not given)
(75) CC(Oc1ccccc1)C(=O)Nc1c(C(=O)Nc2cccc(F)c2)oc2ccccc12 (stereo not given)
(76) Cc1ccccc1Cn1c2ccccc2c2cnn(CC(=O)NCC(C)c3ccccc3)c(=O)c21 (stereo not given)
(77) Cc1cc2ccccc2n1CCNC(=O)c1cccc(Cl)c1
(78) COc1ccc(CNC(=O)c2cc(-c3cccc(Cl)c3)on2)cc1
(79) Cc1ccc(-c2csc(-c3cc4c([nH]c3=O)CC(c3ccccc3)CC4=O)n2)cc1 (stereo not given)
(80) COc1ccc(Cl)cc1NC(=O)CSc1cc(C)[nH]c(=O)n1

compound no.	73	74	75	76	77	78	79	80
Polio RdRp inh	104	105	105	106	104	107	109	106
Polio RdRp inh intensity	110	116	106	108	112	109	112	111

(81) Cc1cc(Nc2ccccc2C)nc(-n2nc(C)cc2C)n1
(82) COc1ccccc1-c1nc(SCC(=O)NCc2ccccc2)c2c(=O)n(C)c(=O)n(C)c2n1
(83) CCC(C)NC(=O)Cn1c(=O)n(Cc2ccc(C(=O)NCc3ccccc3OC)cc2)c(=O)c2ccccc21 (stereo not given)
(84) CN(C)c1ccc(CNS(=O)(=O)c2ccc3[nH]c4c(c3c2)CCCCC4)cc1
(85) Cc1c(C(=O)OCCOc2ccccc2)[nH]c2c1C(=O)CC(c1ccc(C(C)(C)C)cc1)C2 (stereo not given)
(86) CCc1ccc(CN(Cc2cn[nH]c2-c2ccc(OC)cc2)C(=O)Nc2cc(Cl)ccc2OC)cc1
(87) COc1ccccc1CNC(=O)c1ccc(NC(=O)N2CC(C)Sc3ccccc32)cc1 (stereo not given)
(88) O=C(Nc1cc2c(cc1C(=O)c1ccccc1Br)OCCO2)c1cccc(Cl)c1

compound no.	81	82	83	84	85	86	87	88
Polio RdRp inh	116	107	106	110	108	111	111	102
Polio RdRp inh intensity	113	112	111	114	110	118	109	106

# High-throughput results: PubChem BioAssay, ICCB-Longwood Screening Facility, Harvard Medical School

# This is a subset, so the mix of outcomes need not match the whole.
